# T cruzi inh = T. cruzi replication inhibition; T. cruzi beta-gal in NIH3T3, luminescence, 90 h; inhibition, % (concentration not given with the values); 1.4% of 300,000 active; AID 1885;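 active means mean inhibition across valid replicates above about 55%, limit read from the data; inconclusive means mean below that limit but half or more replicates reach it; inactive means mean below it, under half of replicates reach it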;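 further: signal also drops with host cell toxicity which is not excluded here; 0% = plate median of DMSO wells and 100% = zero luminescence signal; higher percent means less beta-gal luminescence so fewer parasites; stock transfer was 50 nL into about 50 µL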
# Calb FLC = affects C. albicans growth with fluconazole | C. albicans CaCi-2 (fluconazole-resistant clinical isolate) + fluconazole, Alamar Blue growth, 48 h | growth inhibition, % (concentration not given with the values) | 0.57% of 300,000 active;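 active means most replicates above 75%; inconclusive means exactly half above 75%; inactive means most below 75%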;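 further: all wells also contain fluconazole at 8 µg/ml as a sub-toxic cotreatment; 0% = median of DMSO wells and 100% = median of geldanamycin control wells; wells of about 8 µL received 7.5 nL stock; the first replicate is given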
# RanGTP-Impb inh = disruptors of Ran-importin-beta complex formation – biochemical, FRET, CFP-Ran, YFP-importin-beta, homogeneous, primary screen. cell-free CFP-Ran/YFP-importin-beta FRET ratio. inhibition, % (no concentration beside the values). 1.1% of 300,000 active. AID 2216;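 active means most replicates above 15%; inconclusive means exactly half above 15%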;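 further: 0% = DMSO wells and 100% = Ran loaded with GDP instead of GTP; wells of about 40 µL received 100 nL stock; the first replicate is given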
# ALR H2O2 inh = blocks human ALR sulfhydryl oxidase activity; purified ALR, DTT oxidation, H2O2 HRP-luminol luminescence; inhibition, % (test concentration not listed); P55789; 3.8% of 290,000 active;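 active means mean and each replicate at 75% or more; inconclusive means only one of the two met; inactive means neither met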;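 further: stock transfer was 7.5 nL into about 7.5 µL; 0% = neutral wells and 100% = wells with inactivated enzyme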
# Target sequence (P55789 whole entry, looked up): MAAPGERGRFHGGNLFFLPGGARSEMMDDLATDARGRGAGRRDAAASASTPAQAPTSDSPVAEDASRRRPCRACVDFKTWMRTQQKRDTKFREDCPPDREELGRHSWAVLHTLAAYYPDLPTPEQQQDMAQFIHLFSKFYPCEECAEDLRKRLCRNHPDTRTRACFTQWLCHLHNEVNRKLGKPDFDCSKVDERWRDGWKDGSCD
# rRNA inh HTS = inhibits bacterial ribosomal RNA function over humanized ribosomes | 1.6% of 350,000 active | E. coli WT GFP vs humanized-ribosome RFP mutants, fluorescence, 24 h; stronger effect = lower value; DMSO median 0, no signal -100 | GFP signal change (wild-type ribosome), % (test concentration not listed) | AID 720706;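 active means significant combined selectivity score with lowered wild-type GFP, culture density cut under 30%, mutant RFP and density less affected; inactive means any of these conditions unmet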; further: one replicate is shown; some compounds called inactive have numbers as strong as hits
# Beta cell apopt = blocks beta cell apoptosis; INS-1E cytokine-induced death, ATP luminescence, 48 h; percent of positive-control rescue, neutral wells zero; 0.8% of 300,000 active; AID 435005; protection from apoptosis, % (concentration not given with the values);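 active means all replicates at 75% or more, or half of them and the mean; inconclusive means half reach 75% but not the mean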;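 further: 0% = cytokine-treated negative control wells and 100% = positive control rescue; higher means more ATP so stronger rescue from cytokine killing; wells of about 40 µL received 100 nL stock; the first replicate is given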
# MLL AF4-AF9 inh = inhibitors of human MLL-AF4/AF9 interaction | AID 651704 | AlphaScreen, biotin-AF4 peptide binding to FLAG-AF9 | inhibition, % at 10 µM | P42568 | 0.47% of 350,000 active;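 active means every replicate reaching a set inhibition limit, whatever the replicate mean, cut at about 25% in these data; inconclusive means mean inhibition reaches that limit but some replicates miss it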;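 further: 0% = plate neutral control median and 100% = total signal loss; the record names both 10 and 1 µM as test concentration; the first replicate is given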
# Target sequence (P42568 whole entry, looked up): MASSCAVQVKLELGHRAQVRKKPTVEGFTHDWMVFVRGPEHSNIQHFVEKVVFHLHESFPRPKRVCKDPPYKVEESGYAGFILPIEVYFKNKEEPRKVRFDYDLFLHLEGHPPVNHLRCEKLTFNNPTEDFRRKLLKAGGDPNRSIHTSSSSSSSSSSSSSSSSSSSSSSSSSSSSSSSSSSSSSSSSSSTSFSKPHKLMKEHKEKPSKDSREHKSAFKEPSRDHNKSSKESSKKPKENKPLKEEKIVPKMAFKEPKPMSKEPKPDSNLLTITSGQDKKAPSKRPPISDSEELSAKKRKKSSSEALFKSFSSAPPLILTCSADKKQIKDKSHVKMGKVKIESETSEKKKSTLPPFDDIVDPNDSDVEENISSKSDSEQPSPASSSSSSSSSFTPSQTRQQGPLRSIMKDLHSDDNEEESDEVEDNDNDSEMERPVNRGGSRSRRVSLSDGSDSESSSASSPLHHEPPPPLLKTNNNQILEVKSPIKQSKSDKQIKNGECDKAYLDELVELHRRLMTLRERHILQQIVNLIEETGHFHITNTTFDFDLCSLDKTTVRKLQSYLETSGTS
# FGF22 binding = binders of recombinant human FGF22 by thermal shift. Q9HCT0. AID 651658. 1.5% of 340,000 active. SYPRO orange fluorescence; percent of sucrose octasulfate shift, DMSO zero. calls only at 9.99 µM;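 active means melting point raised past a set limit in the mean and every replicate; inconclusive means no clear call; three in four hits are not shown here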
# Target sequence (Q9HCT0 whole entry, looked up): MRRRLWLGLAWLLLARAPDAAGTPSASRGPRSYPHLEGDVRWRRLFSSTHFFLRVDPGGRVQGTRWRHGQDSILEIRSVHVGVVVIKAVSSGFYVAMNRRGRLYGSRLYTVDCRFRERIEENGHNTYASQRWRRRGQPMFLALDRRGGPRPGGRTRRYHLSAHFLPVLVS
# rRNA inh HTS OD600 = further read-out of rRNA inh HTS, marked with its call; OD600 change, %; measured here: OD600 growth;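 optical density of the mix in the first replicate; 0 = DMSO median and -100 = no signal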
# rRNA inh HTS RFP = also measured in rRNA inh HTS; calls as there; RFP signal change, %; measured here: RFP humanized mutant strains;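 first replicate; 0 = DMSO median and -100 = no signal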
# * hit, by the source's call; i = inactive; u = inconclusive; x = no result given. Some of the compounds tested; count on the stated rates, not on these rows.
SMILES,T cruzi inh,Calb FLC,RanGTP-Impb inh,ALR H2O2 inh,rRNA inh HTS,rRNA inh HTS OD600,rRNA inh HTS RFP,Beta cell apopt,MLL AF4-AF9 inh,FGF22 binding
Cn1c(CCC(=O)Nc2ccc(F)cc2)nc2cc(S(=O)(=O)N3CCOCC3)ccc21,3,x,5.3,-9,-1,-1,-1.5,1,-51,i
COc1ccc(-n2ncc(C(=O)NC3CC3)c2C2CCN(C(=O)OC(C)(C)C)CC2)cc1,-5,8,0.6,0,0,7,-2.5,4,-0.5,i
Cc1ccc(Nc2ncccc2C(N)=O)cc1,-14,2,-2.7,74,x,x,x,-4,x,x
CCOc1ncccc1C(=O)OCC(=O)Nc1ccc(C)c(S(=O)(=O)N2CCOCC2)c1,-11,-4,-2.5,-4,-17,-20,-2.1,6,3.5,i
O=C(N/N=C/c1ccc(Cl)cc1Cl)c1ccc2nc[nH]c2c1,2,u,-4.7,x,-18*,-0.3*,2.4*,-1,2.5,i
COc1ccc(NS(=O)(=O)c2cccc(C(=O)NNC(=O)c3ccc(C)o3)c2)cc1,x,x,x,3,x,x,x,-3,-0.3,i
O=C(COc1ccccc1N1C(=O)c2ccccc2C1=O)c1ccc(Cl)cc1,-5,-5,0.9,2,x,x,x,-3,x,x
COc1ccc(NC(=O)c2cccnc2N2CCCC2)cc1,-4,3,x,99*,7,9,7.1,-2,0.7,i
Cc1nc2ccc(NC(=O)Cc3ccccc3F)cc2s1,1,34,1.0,x,-7,-4,0.4,3,-2.3,i
COCCCNC(=S)NNC(=O)c1ccoc1C,-1,u,-1.0,42,x,x,x,3,x,x
CSCC[C@H](NC(=O)COc1cc2c(c3oc(=O)c(C)c(C)c13)CCC(C)(C)O2)C(=O)O,-9,-13,-2.7,x,-6,2,3.2,-8,-0.4,i
CC(=O)N1c2ccc(S(=O)(=O)N3CCC(C(=O)N4CCN(c5cc(Cl)ccc5C)CC4)CC3)cc2CC1C (centres undefined),8,-2,-2.5,-2,-2,-5,0.1,62,0.4,i
CN(C(=O)c1cccs1)C1(C)CCS(=O)(=O)C1 (centres undefined),-5,5,2.0,2,3,-2,1.0,-4,-0.3,i
Brc1ccc(-c2cn3c(n2)CCc2ccc4cccnc4c2-3)cc1,5,-12,3.5,-63,x,x,x,68,x,x
CC(C(=O)N1CCOCC1)N1c2cccc3cccc(c23)S1(=O)=O (centres undefined),-11,23,-0.9,-24,x,x,x,-8,x,x
CN(C)c1cc2c(c(N(C)C)c1)C(=O)c1ccccc1C2=O,16,29,3.8,-30,x,x,x,33,x,x
C/C(CC(=O)Nc1ccc(Cl)c(C(F)(F)F)c1)=N\NC(=O)c1ccccc1O,-7,-1,-2.0,-1,x,x,x,23,x,x
CCN1CCN(CCCNC(=O)CNC(=O)c2nn(-c3ccc(OC)cc3)c(=O)c3ccccc23)CC1,-6,0,0.2,0,9,15,2.2,-2,5.2,i
COC(=O)C1(C)CN(S(=O)(=O)c2ccc(C)cc2)c2cc(OC)ccc2C1=O (centres undefined),-1,29,-0.2,x,x,x,x,-6,x,x
CCc1ccc(N(CC(=O)NC2CCCC2)C(=O)CCC(=O)Nc2cc(C)on2)cc1,-5,-11,-2.2,-3,2,8,0.7,-5,-2.9,i
CCCCS(=O)(=O)Nc1ccc(C)cn1,3,-10,3.6,-25,13,6,0.6,0,-37,i
Cc1cc(Nc2ccccc2)n(-c2ccc(C(=O)O)cc2)n1,-7,3,-2.1,99*,-8,-8,-3.0,-4,-2.1,i
COC(=O)C(O)(CC(=O)Nc1ccc(OC(F)(F)F)cc1)C(F)(F)F (centres undefined),-22,-6,11,-15,x,x,x,-8,x,x
COc1ccc(Cl)cc1NC(=O)CN(C)CC(=O)Nc1ccc(S(N)(=O)=O)cc1,-2,0,-1.9,-5,x,x,x,-4,3.4,i
CCN(CC)CCNC(=O)c1ccc(NC(=O)CC(NC(=O)c2ccccc2Cl)c2ccccc2)cc1 (centres undefined),7,-2,-0.3,0,2,6,2.5,-3,0.3,i

# Structural class: the compounds so far containing a Cl atom.
SMILES,T cruzi inh,Calb FLC,RanGTP-Impb inh,ALR H2O2 inh,rRNA inh HTS,rRNA inh HTS OD600,rRNA inh HTS RFP,Beta cell apopt,MLL AF4-AF9 inh,FGF22 binding
O=C(N/N=C/c1ccc(Cl)cc1Cl)c1ccc2nc[nH]c2c1,2,u,-4.7,x,-18*,-0.3*,2.4*,-1,2.5,i
O=C(COc1ccccc1N1C(=O)c2ccccc2C1=O)c1ccc(Cl)cc1,-5,-5,0.9,2,x,x,x,-3,x,x
CC(=O)N1c2ccc(S(=O)(=O)N3CCC(C(=O)N4CCN(c5cc(Cl)ccc5C)CC4)CC3)cc2CC1C (centres undefined),8,-2,-2.5,-2,-2,-5,0.1,62,0.4,i
C/C(CC(=O)Nc1ccc(Cl)c(C(F)(F)F)c1)=N\NC(=O)c1ccccc1O,-7,-1,-2.0,-1,x,x,x,23,x,x
COc1ccc(Cl)cc1NC(=O)CN(C)CC(=O)Nc1ccc(S(N)(=O)=O)cc1,-2,0,-1.9,-5,x,x,x,-4,3.4,i
CCN(CC)CCNC(=O)c1ccc(NC(=O)CC(NC(=O)c2ccccc2Cl)c2ccccc2)cc1 (centres undefined),7,-2,-0.3,0,2,6,2.5,-3,0.3,i

# The main list resumes, repeating the four entries before the break.
SMILES,T cruzi inh,Calb FLC,RanGTP-Impb inh,ALR H2O2 inh,rRNA inh HTS,rRNA inh HTS OD600,rRNA inh HTS RFP,Beta cell apopt,MLL AF4-AF9 inh,FGF22 binding
Cc1cc(Nc2ccccc2)n(-c2ccc(C(=O)O)cc2)n1,-7,3,-2.1,99*,-8,-8,-3.0,-4,-2.1,i
COC(=O)C(O)(CC(=O)Nc1ccc(OC(F)(F)F)cc1)C(F)(F)F (centres undefined),-22,-6,11,-15,x,x,x,-8,x,x
COc1ccc(Cl)cc1NC(=O)CN(C)CC(=O)Nc1ccc(S(N)(=O)=O)cc1,-2,0,-1.9,-5,x,x,x,-4,3.4,i
CCN(CC)CCNC(=O)c1ccc(NC(=O)CC(NC(=O)c2ccccc2Cl)c2ccccc2)cc1 (centres undefined),7,-2,-0.3,0,2,6,2.5,-3,0.3,i
Cc1cc(C)c(S(=O)(=O)N2CCOC2CNC(=O)C(=O)NCCCN2CCCC2=O)c(C)c1 (centres undefined),-6,9,0.6,3,10,2,1.5,1,-1.7,i
CCSc1nnc(NC(=O)CSc2ncccn2)s1,-8,-8,-4.1,5,x,x,x,-1,x,x
CC(C)C[C@@H](NC(=O)C1CCC(CNC(=O)[C@H](Cc2ccccc2)NC(=O)OC(C)(C)C)CC1)C(=O)O (some centres undefined),-3,-2,3.1,x,7,9,-2.3,x,-3.0,i
CC1CCCC(NC(=O)CSc2nnnn2C)C1C (centres undefined),-5,-3,-0.4,-8,7,1,-2.2,-3,3.5,i
CCCCCc1ccc(-c2ccc(C(=O)O)cc2)nc1,2,49,0.5,4,-42,-71,-19,x,x,x
O=C(NCc1ccco1)C(c1ccco1)N(C(=O)Cn1nnc2ccccc21)c1ccc2c(c1)CCC2 (centres undefined),21,15,1.4,-1,x,x,x,-8,x,x
CCc1ccc(S(=O)(=O)NCc2cn3c(C)csc3n2)s1,5,-4,-0.5,18,-7,-2,1.1,-5,-5.9,i
Cc1cc(=O)[nH]c(SCC(=O)Nc2ccc(S(N)(=O)=O)cc2)n1,-5,6,-4.6,99*,12,7,1.8,-1,-5.2,i
CCCCn1c(N)c(N(CCOC)C(=O)c2cccc(OCc3ccccc3)c2)c(=O)[nH]c1=O,3,7,0.2,0,1,1,-1.0,-3,-11,i
COCCN(C(=O)CN1CCc2ccccc2C1)c1c(N)n(Cc2ccccc2)c(=O)[nH]c1=O,1,11,6.8,x,x,x,x,7,x,x
CC(NC(=O)C1CCC1)c1ccccc1 (centres undefined),-5,23,-4.8,-2,x,x,x,-6,x,x
Cc1ccc(C(=O)NNC(=O)/C=C\C(=O)O)cc1,-8,6,3.3,x,20,11,2.1,-1,-10.0,i
O=S(=O)(Nc1ccc(-c2ccc3nncn3n2)cc1)c1cccc(F)c1,-15,1,2.9,-1,8,13,1.7,2,-7.6,i
O=C(c1ccc(F)cc1)N1CCN(C2CC3CCC2C3)CC1 (centres undefined),2,-3,3.3,1,5,4,-0.8,-2,x,x
CCc1ccc(CN2C(=O)c3ccccc3C2C(=O)NCC2CCCO2)cc1 (centres undefined),6,-2,u,-15,6,1,3.8,-4,0.5,i
COc1cc(CNCc2ccccn2)ccc1OCC(N)=O,-4,-13,-0.5,1,13,10,-2.6,-1,-3.7,i
Cc1cc(C)c(S(=O)(=O)N2CCOC2CNC(=O)C(=O)NCCCN2CCOCC2)c(C)c1 (centres undefined),11,1,5.1,-6,7,6,-2.8,1,-2.0,i
CCOC(=O)c1sc(Nc2ccccc2Cl)nc1C,2,-3,-0.1,1,-44,-73,-27,-2,-3.7,i
Cc1cn(CCOc2ccc(Cl)cc2)c(=O)[nH]c1=O,-5,-3,0.7,-3,5,6,1.4,3,-4.7,i
COc1ccc(Cn2c(C)nc3ccc([N+](=O)[O-])cc3c2=O)cc1,39,6,u,0,5,6,7.5,-3,-16,i
COc1ccc2nc3oc(C(=O)NCc4cccs4)cc3cc2c1,-7,4,u,-5,x,x,x,-1,x,x
CC(C)C(=O)N1CCN(c2ccccc2NC(=S)NC(=O)c2ccco2)CC1,-1,23,1.6,x,3,-1,0.4,2,-0.8,i
COc1ccc(F)c(CN2CCN(CCc3ccccc3)C(CCO)C2)c1 (centres undefined),-29,1,2.0,0,3,4,-2.3,x,2.3,i
c1ccc(NCc2ccncc2)cc1,-18,1,-2.1,4,8,-5,-3.6,-3,2.3,i
CC1(C)OC(=O)N(CCC(=O)Nc2cccc(F)c2)C1(C)O (centres undefined),5,5,3.1,0,10,9,0.6,1,-2.6,x
Cc1ccc(OCCOc2ccc(Cl)cc2Cl)c([N+](=O)[O-])n1,7,20,-1.8,-2,-17,-21,-7.7,5,-2.4,i
Cn1c(=O)c(=O)n(C)c2cc(S(=O)(=O)N3CCC(Cc4ccccc4)CC3)ccc21,0,15,3.3,x,x,x,x,-3,x,x
